KCNQ2 enhance: potentiators of rat KCNQ2 potassium channel; Potassium voltage-gated channel subfamily KQT member 2 (Rattus norvegicus), O88943; AID 2239, 2010; CHO-K1 KCNQ2, FluxOR thallium flux fluorescence; active compounds read high; actives 0.54% (n = 310,000); B-score at 10 µM;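 active means fluorescence ratio B-score at least 3 SD of library B-scores, with initial fluorescence B-score within 3 SD, cut at about 5.3 in these data; same plate scores as AID 2156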;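 further: B-score of peak minus minimum over baseline fluorescence ratio after K+ and Tl+ stimulus; positive B-score means potentiation of KCNQ2 with more thallium influx and brighter signal; only the inactives scoring about 0 or higher are listed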
Target sequence (O88943 whole entry, looked up): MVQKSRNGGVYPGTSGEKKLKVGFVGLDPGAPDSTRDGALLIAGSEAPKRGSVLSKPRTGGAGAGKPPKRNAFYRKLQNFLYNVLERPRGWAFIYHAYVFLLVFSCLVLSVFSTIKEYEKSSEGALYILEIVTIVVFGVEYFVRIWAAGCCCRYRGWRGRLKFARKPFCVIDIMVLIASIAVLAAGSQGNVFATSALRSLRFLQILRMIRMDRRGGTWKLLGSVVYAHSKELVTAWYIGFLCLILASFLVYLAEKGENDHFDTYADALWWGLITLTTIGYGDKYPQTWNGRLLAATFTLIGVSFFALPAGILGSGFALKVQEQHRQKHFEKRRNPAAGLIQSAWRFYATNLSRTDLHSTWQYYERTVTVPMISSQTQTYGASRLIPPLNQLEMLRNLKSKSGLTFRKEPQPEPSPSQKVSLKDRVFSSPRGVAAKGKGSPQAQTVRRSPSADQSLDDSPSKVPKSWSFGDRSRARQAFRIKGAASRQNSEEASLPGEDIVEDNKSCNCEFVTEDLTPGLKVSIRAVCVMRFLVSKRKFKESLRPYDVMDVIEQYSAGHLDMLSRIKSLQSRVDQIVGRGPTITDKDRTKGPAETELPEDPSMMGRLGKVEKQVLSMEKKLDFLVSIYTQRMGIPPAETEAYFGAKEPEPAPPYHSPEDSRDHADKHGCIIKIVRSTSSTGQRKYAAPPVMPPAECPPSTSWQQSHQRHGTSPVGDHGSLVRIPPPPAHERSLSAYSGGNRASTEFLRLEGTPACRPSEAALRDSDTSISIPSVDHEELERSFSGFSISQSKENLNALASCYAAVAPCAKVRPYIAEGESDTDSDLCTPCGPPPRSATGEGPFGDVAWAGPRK
KCNQ2 enhance baseline: further read-out of KCNQ2 enhance, marked with its call; B-score; compound at 10 µM; measured here: initial fluorescence intensity artifact check;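 brightness before thallium and not channel activity; 0 = typical well and far values either way flag optical interference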
Numbers without * were called inactive. These rows are one share of the data. The share of hits here may be higher or lower than overall.

KCNQ2 enhance | KCNQ2 enhance baseline | structure
0.67 | 1 | Cc1ccc(S(=O)(=O)N(CC(O)CN(C)C)c2ccccc2)cc1 (stereo not given)
0.77 | -0.71 | c1ccc2oc(-c3[nH]ncc3CN3CCC(N4CCSCC4)CC3)cc2c1
1.1 | -0.23 | Cc1csc(NC(=O)CCc2ccc(S(=O)(=O)N3CCOCC3)cc2)n1
0.03 | 0.12 | CSc1nnc2n(C)c3c(c(=O)n12)C1(CCCC1)Cc1ccccc1-3
1.4 | 0.01 | Cc1cc(C)n(-c2ccc(Cl)c(C(=O)OCC(N)=O)n2)n1
1.6 | 0.12 | CCCCOc1ccc(C(=O)NCC(=O)N(C)CC(=O)Nc2ccc(N3CCOCC3)cc2)cc1
0.77 | -0.55 | COc1ccccc1NS(=O)(=O)CC12CCC(CC1=O)C2(C)C (stereo not given)
0.78 | -0.33 | Cc1ccc(OC(C)C)c(CN(CCO)CCO)c1
0.51 | 1 | CCc1ccc(OCC(=O)NC(NC(=S)Nc2ccccc2)C(Cl)(Cl)Cl)cc1 (stereo not given)
0.38 | -1.2 | CC(C)CCSc1ncnc2c1oc1nc3c(cc12)COC(C)(C)C3
0.77 | 0.28 | COc1ccc(Br)cc1/C=N/Nc1cccc(C(=O)O)c1
0.14 | -2.8 | NS(=O)(=O)c1ccc(CNC(=O)CCCSc2ccccc2)cc1
0.03 | -0.25 | O=C(Cc1cccs1)N1CCN(S(=O)(=O)c2ccccc2)CC1
0.09 | 0.31 | COc1ccc(NC(=O)C2C3CCC(C3)C2C(=O)O)cc1OC (stereo not given)
0.01 | -2 | c1ccc(Cn2nnnc2CN2CCN(c3ncccn3)CC2)cc1
0.39 | -0.01 | COc1ccc(NC(=O)c2ccccc2NC(=O)C2CCCO2)cc1 (stereo not given)
0.86 | 1.1 | Cc1cccc(OCC(=O)NCCNC(=O)c2cccnc2)c1
0.27 | -0.17 | C=CCC(=O)N1CCC(n2nccc2NC(=O)CCOc2ccccc2)CC1
0.47 | -1.8 | COCc1[nH]nc2c1C(c1cc(OC)c(O)c(OC)c1)C(C#N)=C(N)O2 (stereo not given)
0.31 | -0.01 | COC(=O)c1c(NC(=O)CN2C(=O)C(=O)N(CC(C)C)C2=O)sc2c1CCCCC2
0.16 | 1.6 | CN(Cc1ccccc1)CC(O)COc1ccc(CNCCCOc2cccnc2)cc1 (stereo not given)
0.06 | -0.02 | NC(=O)C1(N2CCCCC2)CCN(C(=O)CSc2nc(C(F)(F)F)cc(=O)[nH]2)CC1
0.52 | 0.27 | COc1ccc(C(=O)N2CCC(C(=O)Nc3ccc4c(c3)OCO4)CC2)cc1
2.7 | -0.89 | COc1ccc(C2C(C#N)=C(N)Oc3cc(C)n(CCN4CCOCC4)c(=O)c32)cc1OC (stereo not given)
0.87 | 0.45 | Cc1ccc2c(cnn2C(=O)CCC(=O)NC2CCCC2)c1
2.6 | 0.33 | Oc1c(Cl)cc(Cl)cc1C=Nc1cc(C(F)(F)F)ccc1N1CCc2ccccc2C1
24* | 1.8* | C=CCN(CC=C)C(=S)NC(=O)c1ccc(C)c(Br)c1
0.42 | 0.35 | O=C(Nc1ccc(Cl)cc1)C1CCCN(c2cnccn2)C1 (stereo not given)
0.31 | -0.52 | Cc1c2cnn(CC(=O)NCCN3CCOCC3)c(=O)c2c(C)n1Cc1ccc(F)cc1
1.1 | 0.11 | c1cnc(-c2noc(CN3CCN(C4C5CC6CC(C5)CC4C6)CC3)n2)cn1 (stereo not given)
0.34 | 0.34 | CS(=O)(=O)N(CC(=O)Nc1cccc(F)c1)Cc1ccccc1
0.56 | -0.08 | Cc1ccc(S(=O)(=O)Nc2ccccc2C(=O)N2CCCC2)cc1
0.91 | 0.22 | Cc1ccc(Cn2ccsc2=NC(=O)COC(=O)C(C)C)cc1
0.58 | -0.18 | Nc1nc2ccc(NC(=O)c3ccco3)cc2s1
0.96 | -1.1 | COc1ccc2c(c1)cc(C)c1nnc(SCC(=O)N3CCN(C(=O)c4ccco4)CC3)n12
0.77 | 0.61 | O=C(CCOc1ccccc1)Nc1ccnn1C1CCN(Cc2ccc(O)cc2)CC1
0.54 | 0.17 | C/C(=N\Nc1nc(-c2ccccc2O)nc2ccccc12)c1ccccc1
0.53 | 0 | CNS(=O)(=O)c1cccc(C(=O)OCC(=O)c2ccc(S(=O)(=O)N3CCCCC3)cc2)c1
1.3 | -0.18 | OCCC1CN(Cc2c(F)cccc2Cl)CCN1C1CCCCC1 (stereo not given)
1.6 | 1.6 | O=C(Nc1cccc(Cn2cccn2)c1)c1cc2c(s1)CCCC2
0.08 | -1.8 | Cc1ccc(/C=N\NC(=O)Cc2noc3ccccc23)cc1
0.06 | -1.6 | COc1ccc(N2CCN(C(=O)COC(=O)Cc3cccc(OC)c3)CC2)cc1
0.7 | 0 | COc1ccc(C(=O)c2ccc(Cl)cc2)cc1
0.08 | 0.11 | CSc1nc(-c2ccccc2)cn1-c1ccc(NC(C)=O)cc1
0.1 | 2 | O=[N+]([O-])c1ccc(N2CCCCC2)cc1
1.1 | 0.41 | Cc1cc(NC(=O)CSc2nc3c(c(-c4cccnc4)c2C#N)CCC3)no1
1.5 | 0.46 | COc1ccc(NC(=S)NCCN2CCC(C)CC2)cc1Cl
1 | 2.4 | Cc1oc2cc3oc(=O)c(CC(=O)NCCCC(=O)O)c(C)c3cc2c1C
0.02 | -1.4 | CN(C)S(=O)(=O)c1ccc(NC(=O)COC(=O)c2n[nH]c3ccccc23)cc1
0.54 | 0.01 | O=S(=O)(c1ccc2ccccc2c1)N1CCCOC1
1.3 | 1.7 | COc1cc(C(=O)N(Cc2ccco2)Cc2cc3ccccc3[nH]c2=O)cc(OC)c1OC
0.92 | -0.05 | O=C(Nc1cc2c(oc1=O)CCCC2=O)c1cccc(Cl)c1
0.08 | 0.34 | Cn1nc(CC(=O)Nc2ccc3c(c2)OCCO3)c2ccccc2c1=O
0.01 | 1.7 | CCOC(=O)N1CCN(C(=O)C2CCCN(c3nc4ccc(OCC)cc4s3)C2)CC1 (stereo not given)
0.77 | 0.57 | CC(C)N(C(=O)Nc1ccc2nccnc2c1)C(C)C
0.53 | -1.1 | COc1ccc(C(=O)NC(=S)N2CC(C)OC(C)C2)cc1 (stereo not given)
0.53 | 2.5 | COc1ccc(CC2(CO)CCN(C(C)COc3ccccc3)CC2)cc1 (stereo not given)
2.7 | -1.2 | O=C(NC12CC3CC(CC(C3)C1)C2)N1CCN(S(=O)(=O)c2ccc(Cl)cc2)CC1
1.6 | -2.9 | COc1ccc(CNC(=O)c2cc(C(C)=O)c[nH]2)cc1
1.4 | 1.1 | CCCc1nc2n[nH]c(N)c2c2c1COC(C)(C)C2

Compound profiles (already shown). Values in the order: KCNQ2 enhance	KCNQ2 enhance baseline
COc1ccc(C(=O)c2ccc(Cl)cc2)cc1 is entered as 0.7	0
COc1ccc(NC(=S)NCCN2CCC(C)CC2)cc1Cl is entered as 1.5	0.46

Next section
KCNQ2 enhance | KCNQ2 enhance baseline | structure
0.26 | -0.01 | Oc1cc(O)c2c(c1)O[C@H](c1ccc(O)c(O)c1)[C@H](O)C2
0.2 | 0.13 | C/C(=N\Nc1nc(N2CCOCC2)nc(N2CCOCC2)n1)c1cccs1
0.23 | 0.48 | CC1(C)Cc2c(sc3nc(SCC(=O)N4CCOCC4)nc(N)c23)CO1
0.58 | 1.8 | CC(Oc1ccccc1)C(=O)NC1C(=O)N2C1SC(C)(C)C2C(=O)O (stereo not given)
0.25 | 1.4 | COC(=O)c1sccc1NC(=O)c1ccccc1C(=O)O
0.48 | -0.59 | O=C(Nc1ccccc1)c1ccc(S(=O)(=O)NCC2CCCO2)cc1 (stereo not given)
0.77 | 3.2 | COC(=O)c1cc2occc2n1CC(=O)Nc1ccc(C)cc1C
1.4 | -1.2 | CCN(CC)C(=O)CCS(=O)(=O)c1cccc2nonc12
0.71 | 1.3 | O=C(O)c1cc([N+](=O)[O-])ccc1C(=O)Nc1ccccc1
0.25 | 0.42 | CN1CCCC(OC(=O)c2cc(F)c(F)c(F)c2F)C1 (stereo not given)
0.54 | -0.32 | CSc1ncccc1C(=O)NC1CCCc2c1cnn2-c1ccc(C)c(C)c1 (stereo not given)
0.06 | 2.8 | CCCc1cc(C(=O)Nc2ccc(C(C)=O)cc2)no1
0.01 | -1.9 | Cc1ccc(C(=O)Nc2cccc(C(=O)N3CCOCC3)c2)cc1
1.1 | 1.7 | CC(C)C12CN3CC(C(C)C)(CN(C1)C3c1ccc([N+](=O)[O-])o1)C2=O (stereo not given)
0.6 | 1.5 | COc1ccc(OC(=O)c2ccc3nsnc3c2)cc1
1.1 | 0.08 | Cc1nc2sc3c(=O)[nH]nnc3c2c(C)c1Br
0.36 | 0.73 | CC(=O)N1C(Nc2ccc(Cl)cc2)CCN1c1ccccc1 (stereo not given)
0.66 | 0.73 | COc1ccc(C(=O)c2cn(-c3cccc(Br)c3)nc2C(C)=O)cc1
0.03 | 0.32 | O=S(=O)(NCCc1cn2ccccc2n1)c1ccc2c(c1)OCCO2
2.5 | -0.45 | COC(=O)/C=C1\SC(=NC(=O)c2ccc(OC)cc2)NC1=O

Compounds above with a cyano group, in the order listed:
KCNQ2 enhance | KCNQ2 enhance baseline | structure
0.47 | -1.8 | COCc1[nH]nc2c1C(c1cc(OC)c(O)c(OC)c1)C(C#N)=C(N)O2 (stereo not given)
2.7 | -0.89 | COc1ccc(C2C(C#N)=C(N)Oc3cc(C)n(CCN4CCOCC4)c(=O)c32)cc1OC (stereo not given)
1.1 | 0.41 | Cc1cc(NC(=O)CSc2nc3c(c(-c4cccnc4)c2C#N)CCC3)no1

More compounds
KCNQ2 enhance | KCNQ2 enhance baseline | structure
0.43 | -1.4 | CCC(=O)Nc1cccc2cccnc12
0.4 | -2.3 | CCOc1ccccc1C1C2CCCCC2(O)CCN1C(=O)c1cccs1 (stereo not given)
0.79 | -0.62 | O=C(Nc1cc(S(=O)(=O)Nc2ccccc2Cl)ccc1O)c1sc2cc(Cl)ccc2c1Cl
1.6 | 0 | COc1cc(N(C)C)c([N+](=O)[O-])cc1C(=O)N1CCOCC1
0.77 | -1.6 | CCOC(=O)N1CCN(c2ccc(S(=O)(=O)N3CCOCC3)cc2[N+](=O)[O-])CC1
0.26 | -0.33 | Cc1ccccc1NC(=O)c1csc2c1CCCC2
0.04 | 0.08 | O=S(=O)(NCc1ccccn1)c1ccc(Cl)s1
1.1 | -0.4 | CCN(CC)CCNS(=O)(=O)c1ccc(OC)c(Br)c1
2.1 | 0.73 | FC(F)Sc1ccc(Nc2ncnc3nc[nH]c23)cc1
1.1 | -1.7 | Cc1ccc(NC(=O)CSc2ncnc3ccccc23)cc1S(=O)(=O)N1CCOCC1
18* | -1.7* | COC(=O)c1cn(NC(=O)Cc2ccc(Cl)cc2)c(=O)c2ccccc12
0.05 | 0.5 | COc1ccc(/C=N/Nc2ncc(Br)cn2)c(OC)c1
0.38 | -2.1 | CCc1nnc(NC(=O)C2CCCN2S(=O)(=O)c2ccccc2)s1 (stereo not given)
0.06 | -0.7 | Cc1ccc(C)c2nc(Cl)c(C#N)cc12
0.56 | -1.9 | CC(=O)c1ccc(N(C(=O)CNC(=O)c2ccco2)C(C(=O)NCC2CCCO2)c2ccccc2)cc1 (stereo not given)
1.2 | 0.74 | Cc1cc(NC(=O)COC(=O)c2cccc(S(=O)(=O)N(C)C3CCCCC3)c2)no1
1.2 | 0.14 | O=C(NC1CCSC1=O)c1ccccc1 (stereo not given)
0.21 | -0.64 | CC(=O)Nc1ccc(NC(=O)CCCc2ccccc2)cc1
2.6 | -0.1 | O=C1CN(C(=O)CSc2nnc(-c3ccccc3)n2Cc2ccc3c(c2)OCO3)c2ccccc2N1
0.02 | 0.74 | Cc1cc(C)n(C(=O)c2ccc(NC(=O)C3CC3)cc2)n1

By substructure, those above containing bromine (six)
KCNQ2 enhance | KCNQ2 enhance baseline | structure
0.77 | 0.28 | COc1ccc(Br)cc1/C=N/Nc1cccc(C(=O)O)c1
24* | 1.8* | C=CCN(CC=C)C(=S)NC(=O)c1ccc(C)c(Br)c1
1.1 | 0.08 | Cc1nc2sc3c(=O)[nH]nnc3c2c(C)c1Br
0.66 | 0.73 | COc1ccc(C(=O)c2cn(-c3cccc(Br)c3)nc2C(C)=O)cc1
1.1 | -0.4 | CCN(CC)CCNS(=O)(=O)c1ccc(OC)c(Br)c1
0.05 | 0.5 | COc1ccc(/C=N/Nc2ncc(Br)cn2)c(OC)c1

Next records follow.
KCNQ2 enhance | KCNQ2 enhance baseline | structure
0.98 | -0.07 | CCOc1ccccc1NC(=O)NNC(=O)c1ccc2ccccc2c1
1.3 | -1.2 | COc1ccc(C(=O)COC(=O)Cn2[nH]c(=O)c3ccccc3c2=O)c(OC)c1
0.82 | 0.83 | O=C(CN1CCOc2ccccc21)NC1CCN(Cc2ccccc2)CC1
0.04 | 1.4 | CC(N)(C(=O)O)c1cccc(OCc2cccc(Cl)c2)c1 (stereo not given)
19* | -0.23* | COc1cc(NC(=O)CSc2ncnc3sc4c(c23)CCC(C)C4)c(C(=O)O)cc1OC (stereo not given)
0.63 | -2.4 | Nc1cccnc1Sc1ccc(Cl)cc1
1.3 | 0 | CCn1nc(C)c(/C=N\NC(=O)c2ccc3c(c2)OCO3)c1C
0.07 | -1.8 | Cn1c(=O)[nH]c(=O)c2c1nc(N)n2Cc1ccccc1
0.61 | -0.84 | COc1ccc(NC(=O)CSc2nnc(NC(=O)c3ccco3)s2)cc1OC
0.2 | -0.22 | CCc1nonc1NC(=O)c1oc2ccccc2c1C
1.1 | 1.2 | CCSC1=C(C#N)C(c2ccccc2Cl)CC(=O)N1 (stereo not given)
